TRPML1 blocker = qHTS for Inhibitors of the Human Mucolipin Transient Receptor Potential 1 (TRPML1); Mucolipin-1 (Homo sapiens), Q9GZU1; TRPML1-inducible cells, Ca2+ dye fluorescence, FDSS; active compounds read low; inhibition of EC80 agonist-evoked calcium signal; activity change, negative = inhibition, % (test concentration not listed); actives 0.02% (n = 390,000); AID 624415, 2012; in the data active means activity change below about -50%; inconclusive means about -30% to -50%; inactive means above about -30%;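 note: stimulus is agonist 54-4 at its EC80 concentration; % is set by controls: 0 for no effect and ±100 for the full control effect; compound concentration not given in the record; the text of the record puts the active cut at -80%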
Target sequence (Q9GZU1 whole entry, looked up): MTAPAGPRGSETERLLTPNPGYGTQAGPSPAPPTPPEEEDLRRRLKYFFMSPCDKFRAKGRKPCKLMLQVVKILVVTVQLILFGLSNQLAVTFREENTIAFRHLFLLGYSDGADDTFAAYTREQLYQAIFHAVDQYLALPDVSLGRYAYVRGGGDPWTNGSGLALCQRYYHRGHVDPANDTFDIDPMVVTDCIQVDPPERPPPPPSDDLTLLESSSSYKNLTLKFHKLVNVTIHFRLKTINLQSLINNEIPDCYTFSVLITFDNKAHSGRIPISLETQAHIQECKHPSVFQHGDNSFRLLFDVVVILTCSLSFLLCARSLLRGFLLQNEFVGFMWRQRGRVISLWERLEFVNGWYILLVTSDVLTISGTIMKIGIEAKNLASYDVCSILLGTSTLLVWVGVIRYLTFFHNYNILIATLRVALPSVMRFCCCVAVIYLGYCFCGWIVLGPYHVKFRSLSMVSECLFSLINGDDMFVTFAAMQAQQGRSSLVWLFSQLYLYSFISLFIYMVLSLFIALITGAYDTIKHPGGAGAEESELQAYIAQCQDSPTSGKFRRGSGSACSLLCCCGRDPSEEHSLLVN
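Calcium fluorescence in TRPML1-DL cells induced overnight with Tet: a 110 s read after compound pin addition, then a 110 s antagonist read after challenge with 54-4 at 4 uM final (EC80).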
Sfp PPTase inh = qHTS Assay for Inhibitors of Bacillus subtilis Sfp phosphopantetheinyl transferase (PPTase); 4'-phosphopantetheinyl transferase ffp (Bacillus subtilis), Q9F4F7; Biochemical Sfp PPTase activity, qHTS; AID 1490, 2009; Potency, µM, for inactives: max response, negative = inhibition, usual class: inhibitors; actives 3.5% (n = 310,000); active = well fitted inhibition curve with a large enough effect; inconclusive = small, poorly fitted or top-dose-only effect, or another doubt; inactive = no such curve, though single readings can be large or run the other way;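 note: the enzyme is Sfp with the accession as filed and its product quenches rhodamine fluorescence; potency is the fitted concentration of half-maximal effect; 0% = enzyme reaction without inhibitor and -100% = no enzyme wells; top concentration of the series not given in the record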
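Fluorescence-quenching assay with 15 nM Sfp, 5 uM rhodamine-CoA and 12.5 uM BHQ-2-labelled ybbR peptide in pH 7.6 Hepes/MgCl2 buffer. Enzyme was pre-incubated with compound for 15 min at room temperature. Rate was taken from the 30-min fluorescence change (525/598 nm).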
TRPML1 agonist = qHTS for Agonists of the Human Mucolipin Transient Receptor Potential 1 (TRPML1). Mucolipin-1 (Homo sapiens), Q9GZU1. TRPML1-expressing cells, Ca2+ dye fluorescence, FDSS; host cell line not named in the record; reference of the full effect not given here. activation, % (test concentration not listed). actives 0.12% (n = 410,000). AID 624414, 2012; in the data active = activation above about 50%; inconclusive = about 30% to 50%; inactive = below about 30%; note: 0% is about no effect; the text of the record puts the active cut at 80%
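Calcium fluorescence on an FDSS kinetic reader gave the read-out. Tet-induced TRPML1-DL cells were plated overnight, dye-loaded (Ca8 with quencher, 45-90 min, room temperature, dark), then read 110 s after compound addition, and again 110 s after 4uM final 54-4 (EC80).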
Menin MLL FP FL = qHTS Assay for Inhibitors Targeting the Menin-MLL Interaction in MLL Related Leukemias: Competition With Fluorescein Labeled MLL-derived Peptide. Fluorescence polarization, fluorescein-MLL peptide displacement from menin. FP activity change, % at 61.4 µM. 290,000 tested, under 10 active. AID 1766, 2009; inconclusive = falling polarisation curve, or a change in total fluorescence; inactive = total fluorescence flat and polarisation flat or rising; no compound was filed as active; the % refers to the polarisation; negative = inhibition;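 note: % of control where 0% means no effect; inhibitors lower the polarisation; unlabelled MLL peptide was the positive control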
PINK1 modulator = A Quantitative High throughput Screen to Identify Chemical Modulators of PINK1 Expression; Potency, µM (highest dose often 76.6 µM), inactives show at the highest dose activation (PINK1 increase), most hits filed as activators; actives 0.2% (n = 410,000); PINK1 immunofluorescence, high-content cytometry, 24 h; active = well fitted activation curve with a large enough effect; inconclusive = small, poorly fitted or top-dose-only effect; inactive = flat fitted curve, though single readings scatter; cell line not stated here;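 note: potency is the fitted concentration of half-maximal effect; % of control where 0% means no effect; nearly all actives have a fitted effect of over 65% in size; a mitochondrial uncoupler was the plate control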
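Stable cell line treated 24 h with compounds at 5 concentrations (CCCP controls), then fixed and immunostained for PINK1 plus nuclear and cell stains; PINK1 immunofluorescence quantified by laser-scanning microplate cytometry.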
ClpP mod = qHTS Assay for Activators of ClpP. ATP-dependent Clp protease proteolytic subunit (Bacillus subtilis (strain 168)), P80244. purified B. subtilis ClpP, FRET peptide cleavage, 20 min. Potency, µM (doses to about 57.5 µM), without a hit: top-dose activity change, negative = active. actives 1.9% (n = 340,000). AID 651965, 2013; active = well fitted falling curve with a large enough effect; inconclusive = small, poorly fitted or top-dose-only effect; inactive = no such curve, though single readings can be large or run the other way; note: potency is the fitted concentration of half-maximal effect; the source files actives as falling curves though it sought activators and does not explain the sign; nearly all actives have a fitted effect of over 65% in size; many hits overshoot -100%
Target sequence (P80244 whole entry, looked up): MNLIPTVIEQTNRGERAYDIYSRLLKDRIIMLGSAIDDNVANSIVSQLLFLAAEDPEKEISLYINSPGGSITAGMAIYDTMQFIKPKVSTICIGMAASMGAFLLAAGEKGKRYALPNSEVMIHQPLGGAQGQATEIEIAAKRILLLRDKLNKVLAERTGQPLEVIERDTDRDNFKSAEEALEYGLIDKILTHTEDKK
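FRET quenching reversal measured ClpP activation: 10 microg/mL B. subtilis ClpP at pH 8 with the FRET-FV decapeptide, read at 430 nm after 320 nm excitation. The 20-min minus 0-min signal was scaled between DMSO/no-enzyme wells and ADEP (5.8 microM final).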
TRPV1 PAM = HTS Assay for Compounds that Act as Potentiators of the Vanilloid Receptor 1 | TRPV1-expressing cells, Fluo-8 calcium influx, capsaicin EC20 potentiation; host cell line not named in the record; control for the full effect not named in the record | potentiation, % at 8.33 µM | actives 0.02% (n = 320,000) | AID 540277, 2011; active means potentiation above 80%; inconclusive means 30% to 80%; inactive means below 30%; note: 0% is about no effect
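Cells expressing TRPV1 were dye-loaded with Fluo-8 and read kinetically: 10 s baseline, 3 min after compound (agonist portion), then 2 min after EC20 capsaicin (allosteric enhancer portion). Calcium-bound dye fluorescence at 480/520 nm.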
* hit, by the source's call; ? = inconclusive; . = no result given; & = joins results of further samples; [ ] = remark or other dose. Rows are unselected (roughly 4.4% active in at least one column).

canonical_smiles | TRPML1 blocker | Sfp PPTase inh | TRPML1 agonist | Menin MLL FP FL | PINK1 modulator | ClpP mod | TRPV1 PAM
O=C(CC1C(=O)NCCN1Cc1ccc(-c2ccccc2)cc1)NCCc1ccccn1 (configuration not stated) | -5.6 | ? | 0.4 | -12.2 | -0.4% | . | 7.7
CC(C)N1CCC1(C)C(=O)Nc1nccc2cccnc12 (configuration not stated) | . | . | -0.6 | . | 0.3% | 4.5% | .
CCCCCSc1nc2sc3c(c2c(=O)n1-c1ccccc1)CCN(C(C)=O)C3 | -10.9 | . | -0.8 | . | -0.5% | -17.8% | .
O=C(CCNC(=O)c1ccccc1Cl)Nc1cccc(S(=O)(=O)N2CCCC2)c1 | 23.4 | . | -0.1 | . | -0.4% | -1.3% | 2.7
COC(=O)CCN(C(=O)c1ccc(N2CCCC2)c([N+](=O)[O-])c1)c1ccccn1 | 19.1 | 9.0% | 0.2 | 0.7 | -0.4% | . | 0.3
CCCn1c(SCc2ccon2)nc2ccccc2c1=O | 14.9 | 3.3% | 2.7 | 2.5 | 4.6% | 0.4% | -13.6
CC1(C(=O)NC2CCCCCC2)CCN1C(=O)Cc1ccc(-c2ccccc2)cc1 (configuration not stated) | . | . | 0.0 | . | 10.3% | 0.3% | .
Cc1ccnc(N2CCC(C(=O)NNC(=O)COc3cccc4ccccc34)CC2)n1 | -2.0 | 18.1% | 0.2 | 2.3 | -0.1% | . | ?
CC(=O)c1ccc2c3c(cccc13)CC2 | 24.9 | 5.8% | 0.3 | 1.0 | 0.0% | -5.2% | 3.7
O=C(CN(CCc1ccccc1)C(=O)c1csnn1)NC1CCCC1 | -17.8 | 20.2% | 1.2 | 2.6 | -1.3% | -0.9% | -4.2
CNC(=S)N/N=C/c1ccccc1OCC(=O)O | 3.8 | 20µM* | -0.2 | -0.5 | 0.2% | . | 3.5
COc1cc2cc3c(N)c(C(=O)NCc4ccco4)sc3nc2cc1OC | 1.6 | -14.8% | -0.1 | 0.8 | 9.5% | -5.2% | -2.9
COc1ccccc1NC(=S)N1CCC(c2nc3ccccc3o2)CC1 | 24.9 | 5.1% | 0.7 | 8.5 | -1.8% | -0.7% | 3.3
Brc1ccc(CNc2nc3ccccc3n2CCN2CCCCC2)cc1 | 14.2 | 6.4% | 3.2 | -6.0 | ? | 0.9% | 2.9
CCOC(=O)c1c(C)sc(-c2c(-c3cc(C)ccc3C)[nH]c3c2c(=O)n(C)c(=O)n3C)c1O | 1.7 | . | 0.0 | . | 2.5% | -1.1% | .
O=C(CCC(=O)Nc1ccccc1Cl)NNC(=O)C1CCCCC1 | 3.6 | . | -0.4 | . | 0.3% | -1.8% | .
CCN(CC)CCOC(=O)c1c(C)oc2ccc(OC)cc12 | -7.2 | -0.6% | -0.3 | 5.7 | . | -0.8% | -2.3
O=C(N/N=C/C=C\c1cccc([N+](=O)[O-])c1)c1cccnc1 | -14.5 | -1.0% | -0.5 | 1.8 | 0.3% | -0.2% | -5.1
COCC(C)NS(=O)(=O)c1ccc(C)cc1 (configuration not stated) | -9.2 | 6.3% | -0.1 | 0.6 | -2.2% | 0.5% | -4.8
O=C(N/N=C/C=C/c1ccccc1)c1cc2c(ccc3ccccc32)o1 | -9.9 | 5.3% | -0.2 | 1.6 | 8.0% | -2.2% | 2.7
CC(=O)Nc1ccc(S(=O)(=O)N2CCCc3ccccc32)cc1 | -7.7 | 11.3% | 0.4 | 4.5 | 3.16µM* | -1.1% | -7.3
COc1cccc(-c2nn(C)c3sc(C(=O)NCCc4ccc(Cl)cc4)cc23)c1 | 28.3 | . | -0.2 | . | 8.0% | 4.2% | .
Cc1cc(C)n(C(=O)c2cc3sccc3[nH]2)n1 | 35.7 | -9.4% | 1.9 | 0.3 | -1.8%[38.3 µM] | -5.2% | -1.1
Cc1cccc(NC(=O)Cn2cnc(S(=O)(=O)N3CCCC3)c2)c1C | 4.1&3.9 | 21.0% | -0.5&-0.1 | . | -0.5%&-0.5% | 0.7%&-2.1% | 16.2
CCOC(=O)c1sc(NC(=O)Nc2cccc(Cl)c2)cc1C | 16.5 | -0.8% | 0.6 | 9.0 | ? | 31.6µM* | -19.1
Cc1cc(OCC(O)CN2CCN(c3ccccn3)CC2)cc(C)c1Cl (configuration not stated) | 3.1 | -14.5% | 0.9 | -1.3 | 4.6% | -0.9% | 13.0
CC1CC(C)CN(C(=O)c2ccc3nc[nH]c3c2)C1 (configuration not stated) | 15.4 | 18.2% | -0.3 | . | 0.5% | -1.3% | 4.0
CCOC(=O)c1ccc(N2CN=C3SCC(=O)N3C2)cc1 | 2.3 | 1.8% | -0.5 | 7.0 | 6.6% | 1.5% | -6.4
O=C1ON=C(c2ccccc2)/C1=C\c1ccco1 | -9.7 | 14.1µM* | 1.3 | ? | 0.1% | -0.3% | -2.1
CCS(=O)(=O)Nc1ccc(-c2nnc(SCC(=O)c3ccc(NC(C)=O)c(OC)c3)o2)cc1 | 8.9 | 14.5% | -0.4 | 2.8 | 1.4% | 4.9% | 15.2
CCn1c(SCC(=O)NCc2ccccc2)nc2ccccc2c1=O | 7.7 | 17.4% | -0.4 | 1.6 | . | -0.1% | -19.2
Cc1ncc(CN2CCCC(CCC(=O)NCc3ccccc3F)C2)s1 (configuration not stated) | 26.9 | 17.4% | -0.5 | -2.4 | 8.7% | . | -1.5
O=C1CSC(c2cccnc2)N1C1CCCCC1 (configuration not stated) | 8.9 | 12.5% | -0.1 | 0.9 | 1.5% | 1.1% | 0.5
CCNC(=S)Nc1ccc2cn[nH]c2c1 | 9.1 | 8.6% | 0.1 | 4.9 | -0.7% | -2.3% | -1.3
CC1=C(C(=O)N(C(C)C)C(C)C)CC(CC(=O)NC2CC2)C(=O)N1Cc1ccc(F)cc1 (configuration not stated) | . | . | -0.4 | . | -0.1% | 0.3% | .
O=C(CSc1nc2cccnc2n1Cc1ccccc1)N1CCCC1 | 33.6 | 14.6% | 2.2 | -3.1 | -2.2% | -0.5% | -14.9
c1ccc(Nc2c(-c3ccco3)nc3ccccn23)cc1 | -7.5 | -5.8% | 5.2 | 11.7 | 5.8% | 25.1µM* | 9.9
O=S(=O)(Nc1ccc(N2CCOCC2)cc1)c1cc(Cl)ccc1Cl | 10.7 | 3.0% | 3.6 | -0.5 | 1.4% | -2.2% | -7.3
NC(=O)c1ccc(CN2CCC(Cc3ccccc3)CC2)cc1 | -1.6 | 10.5% | -0.4 | -4.5 | -1.3% | -0.7% | 3.2
CCCOC(=O)c1ccc(Nc2nc(C)cc(=O)[nH]2)cc1 | 30.7 | 1.0% | 3.0 | 4.5 | -0.8% | -13.6% | 7.5
COC(=O)c1cc(S(=O)(=O)N2CCCCCC2)cn1C | 16.3 | 12.9% | -0.3 | . | 2.4% | 1.1% | 2.4
Cn1c(=O)c2c(nc(CN3CCCCC3)n2Cc2c(F)cccc2Cl)n(C)c1=O | 44.4 | 7.1% | -0.4 | -0.5 | 0.7% | -1.4% | 11.3
Clc1ccc(-c2nc(N3CCOCC3)nc3ccccc23)cc1 | -8.4 | -12.6% | -0.3 | -0.5 | 8.0% | 0.0% | -9.9
Cc1nc2cc(F)ccc2n1C1CCN(C(=O)c2c(F)cccc2F)CC1 | 2.9 | 4.0% | 1.1 | -1.5 | 2.1% | ? | 12.2
Cc1cc(C)nc(SCc2ccc(Br)cc2)n1 | -17.1 | 7.4% | 1.6 | -6.7 | 6.8% | . | -20.1
CN(/C(=N/S(=O)(=O)c1cccs1)c1ccccc1)c1ccc(O)cc1 | 0.7 | 21.2% | 0.4 | 0.5 | 0.8% | -1.7% | 9.5
O=C(Nc1nc2ccccc2s1)NC1CCCCC1 | -24.5 | -19.7% | 1.7 | 1.9 | 6.8% | -3.2% | -12.1
CCOC(=O)N1CCC(N(CCN(C)C)C(=S)Nc2cccc(SC)c2)CC1 | 9.5 | 18.6% | -1.3 | -3.2 | 0.5% | . | -5.1
COC(=O)c1ccc(Cl)cc1NC(=O)NC(C)c1c(-n2cccc2)sc(C)c1C (configuration not stated) | 28.2 | . | 1.8 | . | 1.0% | ? | .
CCN(CC)CCNC(=O)CSc1c2c(nc3cc(Cl)ccc13)CCCC2 | 18.8 | 11.2% | -0.2 | 0.0 | -1.4% | 0.2% | -5.4

Other records.
canonical_smiles | TRPML1 blocker | Sfp PPTase inh | TRPML1 agonist | Menin MLL FP FL | PINK1 modulator | ClpP mod | TRPV1 PAM
CSC1=NC(C)(C)CC2(C)Nc3ccccc3N12 (configuration not stated) | -16.0 | 6.9% | 0.6 | -3.6 | 6.9% | -3.3% | -1.0
CC(C)(C)c1ccc(OCc2ccc(C(=O)N/N=C/c3ccc([N+](=O)[O-])cc3)o2)cc1 | 1.4 | 19.7% | -0.6 | 0.7 | 1.8% | -0.4% | 20.4
CCCN1CCN(c2ccc(S(N)(=O)=O)cc2[N+](=O)[O-])CC1 | -13.7 | 2.2% | -0.3 | -0.4 | 0.2% | 2.3% | -10.6
COc1ccc(-n2ncc3c(NCc4ccccn4)ncnc32)cc1 | -13.4 | -23.5% | -1.1 | 2.3 | 0.6% | ? | -1.0
CCCc1nnc(NC(=O)c2cc(OC)cc(OC)c2)s1 | 9.4 | 6.1% | 2.8 | 3.6 | -4.6% | -3.3% | -0.7
O=C(Cn1c2ccc(F)cc2c2nc3n(c(=O)c21)CCS3)Nc1ccccc1C(F)(F)F | -2.5 | -8.1% | 0.0 | 1.2 | 6.0% | . | 2.7
CCOC(=O)C1=C(C)Nc2ccccc2N=C1NC(=O)c1cccc(S(=O)(=O)NCc2ccccc2)c1 | 12.9 | 4.2% | 2.3 | 3.1 | . | -2.7% | 3.0
COCCn1c(C)cc(/C=N/NC(=O)c2cc3ccccc3cc2O)c1C | 27.8 | . | -0.2 | . | 3.2% | 1.2% | 8.7
